MLL AF4-AF9 inh – MLL-AF4/AF9 protein interaction inhibition. P42568. inhibition, % at 10 µM. AlphaScreen, biotin-AF4 peptide binding to FLAG-AF9. AID 651704. 350,000 compounds, 0.47% hits;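 active = every replicate reaching a set inhibition limit, whatever the replicate mean, cut at about 25% in these data; inconclusive = mean inhibition reaches that limit but some replicates miss it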;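 also: 0% = plate neutral control median and 100% = total signal loss; the record names both 10 and 1 µM as test concentration; the first replicate is given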
Target sequence (P42568 whole entry, looked up): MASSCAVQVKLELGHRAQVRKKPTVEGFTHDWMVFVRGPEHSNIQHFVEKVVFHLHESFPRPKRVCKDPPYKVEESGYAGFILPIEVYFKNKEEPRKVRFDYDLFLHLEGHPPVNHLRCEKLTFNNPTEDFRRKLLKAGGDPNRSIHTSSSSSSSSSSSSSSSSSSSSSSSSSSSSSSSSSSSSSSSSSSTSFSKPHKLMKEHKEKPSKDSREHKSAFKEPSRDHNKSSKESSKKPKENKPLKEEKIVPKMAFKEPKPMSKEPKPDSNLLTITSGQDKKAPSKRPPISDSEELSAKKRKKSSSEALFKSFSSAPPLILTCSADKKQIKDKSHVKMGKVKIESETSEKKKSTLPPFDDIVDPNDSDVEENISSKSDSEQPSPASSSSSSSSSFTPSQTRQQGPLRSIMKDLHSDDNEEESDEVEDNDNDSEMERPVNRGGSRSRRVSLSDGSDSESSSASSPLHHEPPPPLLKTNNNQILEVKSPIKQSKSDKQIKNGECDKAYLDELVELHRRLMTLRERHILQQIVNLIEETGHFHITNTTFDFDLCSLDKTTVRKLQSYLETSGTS
Bfl-1 A1 inh – inhibitors of the anti-apoptotic protein A1, read as caspase activation; MEF A1-2A-BIM cells, Caspase-Glo 3/7 luminescence, 3 h; percent of clofoctol response, vehicle zero; caspase activation, % (concentration not given with the values); 330,000 compounds, 0.066% hits; AID 2462;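 active = over half of replicate activation scores above 10%, or exactly half above 10 with the replicate mean above 10; inconclusive = replicate mean below 10 yet half the replicates above 10; inactive = over half of replicates below 10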;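 also: wells of about 30 µL received 50 nL stock; many hits fall short of the cut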
RanGTP-Imp inh – disruptors of Ran-importin-beta complex formation – biochemical, FRET, CFP-Ran, YFP-importin-beta, homogeneous, primary screen; inhibition, % (test concentration not listed); 300,000 compounds, 1.1% hits; AID 2216; cell-free CFP-Ran/YFP-importin-beta FRET ratio;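 active = most replicates above 15%; inconclusive = exactly half above 15%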;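 also: 0% = DMSO wells and 100% = Ran loaded with GDP instead of GTP; wells of about 40 µL received 100 nL stock; the first replicate is given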
T cruzi repl – blocks replication of Trypanosoma cruzi; T. cruzi beta-gal in NIH3T3, luminescence, 90 h; 300,000 compounds, 1.4% hits; inhibition, % (no concentration beside the values);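 active = mean inhibition across valid replicates above about 55%, limit read from the data; inconclusive = mean below that limit but half or more replicates reach it; inactive = mean below it, under half of replicates reach it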;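 also: signal also drops with host cell toxicity which is not excluded here; 0% = plate median of DMSO wells and 100% = zero luminescence signal; higher percent means less beta-gal luminescence so fewer parasites; stock transfer was 50 nL into about 50 µL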
Vif A3G – HIV-1 Vif–A3G interaction blockers – biochemical, TR-FRET, GST-Vif 1-94, biotin-A3G peptide, dose response retest, primary screen (AID 1117319). TR-FRET GST-Vif / biotin-A3G peptide binding; higher % means a stronger effect; test concentration not given here; strong numbers were not always called active. inhibition, %, or IC50 in µM where a hit was titrated. 260,000 compounds, 0.57% hits;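 active = above the screen mean plus three standard deviations and confirmed in dose response; inconclusive = results disagree or hit not tested in dose response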;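 also: Vif residues 1-94 fused to GST binding biotinylated APOBEC3G peptide 110-148; 0% = full assay without inhibitor and 100% = GST in place of GST-Vif; retest series ran down from 100 µM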
Calb FLC – C. albicans growth modulation with fluconazole. C. albicans CaCi-2 (fluconazole-resistant clinical isolate) + fluconazole, Alamar Blue growth, 48 h. growth inhibition, % (no concentration beside the values). 300,000 compounds, 0.57% hits. AID 1979;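 active = most replicates above 75%; inconclusive = exactly half above 75%; inactive = most below 75%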;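 also: all wells also contain fluconazole at 8 µg/ml as a sub-toxic cotreatment; 0% = median of DMSO wells and 100% = median of geldanamycin control wells; wells of about 8 µL received 7.5 nL stock; the first replicate is given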
Beta apoptosis – blocks beta cell apoptosis. protection from apoptosis, % (no concentration beside the values). INS-1E cytokine-induced death, ATP luminescence, 48 h; percent of positive-control rescue, neutral wells zero. 300,000 compounds, 0.8% hits;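 active = all replicates at 75% or more, or half of them and the mean; inconclusive = half reach 75% but not the mean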;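 also: 0% = cytokine-treated negative control wells and 100% = positive control rescue; higher means more ATP so stronger rescue from cytokine killing; wells of about 40 µL received 100 nL stock; the first replicate is given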
LANA-H2A inh – blocks KSHV LANA binding to histone H2A/H2B. cell-free LANA-H2A/H2B peptide, fluorescence polarization. AID 2629. inhibition, % (test concentration not listed). Q9QR71. 320,000 compounds, 0.6% hits; in the data active = inhibition mostly above about 10%, no sharp cut-off; inactive = mostly below about 6.7%;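 also: stock transfer was 7.5 nL into about 10 µL; 0% = median of vehicle wells and 100% = median of positive control wells; one replicate is shown; the record names a cut of 25% in any replicate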
Active calls of the source: *; u = inconclusive; x = no result given.

Structure,MLL AF4-AF9 inh,Bfl-1 A1 inh,RanGTP-Imp inh,T cruzi repl,Vif A3G,Calb FLC,Beta apoptosis,LANA-H2A inh
Cc1ccc(S(=O)(=O)N2CCN(C(=O)COC(=O)c3ccc([N+](=O)[O-])o3)CC2)c(C)c1,-19,-0.1,x,x,x,x,-5,-0.2
CC(C)NS(=O)(=O)c1ccc(OCC(=O)Nc2ccccc2F)cc1,-0.7,-0.7,1.2,-4,8%,-4,-5,-2.3
O=C(Nc1ccccc1N1CCOCC1)c1ccc(F)c(S(=O)(=O)N2CCOCC2)c1,0.7,-0.2,x,x,x,x,2,-1.4
c1ccc(-c2ccccc2OCCN2CCCC2)cc1,-1.0,0.4,-7.4,2,3%,-21,2,6.1
Cc1cccc(NC(=S)N(Cc2ccc(Cl)cc2)Cc2ccc(C(=O)O)cc2)c1,-1.6,0.4,1.6,13,-15%,10,1,1.3
Cc1ccccc1Nc1nc(N)nc(COC(=O)c2ccc(O)cc2)n1,x,0.3,-0.3,-7,-4%,3,-1,-4.3
Cc1cc(C(=O)NNC(=O)c2ccc(F)cc2)c(C)s1,3.7,-0.1,x,x,5%,x,-2,-0.1
CSc1nc(N2CCOCC2)c2c(c1C#N)CC(C(C)C)OC2 (stereo not drawn),-3.2,-1.0,-0.4,44,-12%,3,4,4.2
COc1ccc2nc(NC(=O)c3ccc(-c4cccc([N+](=O)[O-])c4)o3)sc2c1,x,0.3,3.1,-1,5%,-6,-5,1.9
Clc1ccc(Nc2ccc3ccccc3n2)cc1,-0.5,-4.8,3.0,8,x,-23,1,-0.4
CCCCCCN1C=CC(=C/C=C(\C#N)C(=O)OCC)C=C1,x,0.2,u,21,9%,-8,0,-11
NC(=O)Cn1c2[n+](c3ccccc31)CC(O)CS2 (stereo not drawn),x,0.7,2.1,-16,16%,0,-4,1.0
CC(C)(C)n1ncc2c(=O)n(Cc3c(Cl)cccc3Br)cnc21,2.0,1.7,x,x,x,x,7,5.2
Cc1ccc(C(C#N)c2ccc(Cl)nn2)cc1 (stereo not drawn),-0.1,1.7,3.7,11,-2%,6,x,-7.9
CC(=O)c1ccc(OCCOc2ccc([N+](=O)[O-])cc2)cc1,1.3,-0.3,-0.8,-9,x,-2,-2,-2.8
Cc1ccc(N2CC(C(=O)OCC(=O)C(C)(C)C)CC2=O)cc1C (stereo not drawn),x,1.2,x,-3,4%,-13,x,1.2
Cc1ccccc1C(=O)NCCNC(=O)c1ccco1,-0.1,-0.8,1.4,-11,x,-5,-4,-2.4
O=C(NNC(=O)c1ccccc1F)c1ccc(-c2ccc(Cl)cc2)o1,-22,0.4,3.3,-5,4%,31,x,1.0
CCOc1ccccc1NC(=O)C(NCC1(N2CCCCC2)CCCCC1)c1ccccc1 (stereo not drawn),2.1,1.7,6.5,36,u,12,11,12
O=C(NCCc1ccccc1)/C(=C/c1ccco1)c1ccccc1,11,-0.5,-1.0,-4,11%,-1,-7,1.2
Cc1ccc(S(=O)(=O)N2CCCC(C(=O)NNCC(=O)Nc3cc(F)ccc3F)C2)cc1 (stereo not drawn),1.3,0.8,0.0,19,6%,-1,-3,-2.1
COc1cccc(C(=O)N2CCC(C(=O)N3CCN(C)CC3)CC2)c1,-0.8,x,-4.3,-13,x,-4,x,x
CCCOc1ccc(C(=O)Nc2ccc(NC(=O)c3cccs3)cc2)cc1,-3.2,-0.6,2.9,8,2%,12,-2,1.1
O=C(NCCc1ccccc1)C(=O)NCC1OCCN1S(=O)(=O)c1ccc([N+](=O)[O-])cc1 (stereo not drawn),-0.5,0.8,u,48,7%,39,-2,2.5
CC(C)(C)C1CCc2c(sc(NC(=O)c3ccco3)c2C(N)=O)C1 (stereo not drawn),x,0.1,x,x,14%,x,1,1.3
COc1ccc(CCN(Cc2cccs2)S(=O)(=O)c2ccc(S(=O)(=O)N3CCC(C)CC3)cc2)cc1OC,x,0.4,0.9,50,-4%,-14,0,2.1
COc1cc(OC)c2c(c1)C(=O)OC2,x,0.4,0.8,-2,-1%,25,0,-0.1
COC(=O)c1ccc(Cl)c(NC(=O)c2cccc([N+](=O)[O-])c2C)c1,0.1,0.5,5.5,-13,14%,-1,3,-6.5
O=C(Nc1ccccc1)c1ccccc1NC(=O)c1ccccc1C(=O)O,0.4,-0.8,15,-13,x,1,5,3.2
COc1ccc(C(=O)NCC(=O)N2CCC3(CC2)NCCc2[nH]cnc23)cc1,-0.3,0.0,-1.5,-4,14%,-19,-1,-1.3
CCOC(=O)c1sc(NC(=O)CCN2C(=O)c3cccc([N+](=O)[O-])c3C2=O)c(C(=O)OCC)c1C,x,-0.6,-16,-1,-1%,29,2,0.0
C/C=C/C=C\C(=O)Nc1cccc(C2=NOC3(C2)C[C@@H](C(N)=O)N(C(=O)/C(C)=C/C)C3)c1 (stereo partly drawn),-7.3,-0.3,-2.0,-7,26%,-3,-4,-0.8
CCOC(=O)c1sc(NC(=O)CSc2ccccn2)c(C#N)c1C,x,0.7,-2.8,-9,1%,3,x,3.3
CCOc1ccc(CNC(=O)CCc2cn(C)c3ccccc23)cc1,3.7,-0.1,0.9,4,-11%,10,-1,-2.5
c1ccc(-c2nnc(SCc3nc4ccccc4[nH]3)n2Cc2ccco2)nc1,x,0.9,0.4,-12,7%,u,0,-3.4
CCOc1[nH]n(-c2ccccc2)c(=O)c1C=Nc1ccc(C)cc1,-0.3,0.1,0.6,-19,-2%,0,1,-4.3
Fc1ccc(-n2c(-c3cccs3)nc3nc4ccccc4nc32)cc1,x,-0.7,5.2,5,x,0,4,1.9
O=C(Cc1coc(-c2ccc(F)cc2)n1)Nc1ccccc1,x,-0.7,x,x,-1%,x,0,1.5
COC(=O)c1ccc(NC(=O)C(=O)c2cccn2C)cc1,0.7,-9.3,6.2,-8,x,-5,14,-1.7
COc1ccc(S(=O)(=O)NCc2ccc(C)cc2)cc1,x,1.6,0.3,-1,0%,1,1,-4.3
O=C(Cc1ccc(Cl)cc1)Nc1ccc(N2CCN(C(=O)c3ccco3)CC2)c(Cl)c1,x,1.1,0.4,40,-3%,9,2,-0.3
COc1ccc(NC(=O)CCC(=O)c2ccc(-c3ccccc3)cc2)cc1,x,0.3,1.2,4,-5%,-5,2,1.3
COc1ccccc1N(CC(=O)NCCSCc1ccc(Cl)cc1)S(C)(=O)=O,1.1,1.0,-4.0,-5,30%,0,5,0.4
COc1cc(C(C)=O)ccc1OCc1cc(C(=O)N2CCSCC2)no1,-1.2,-0.3,3.0,-15,5%,-3,x,3.9
CC12CN(C(=O)c3cccc([N+](=O)[O-])c3)C3(C#N)CC1CCC23C (stereo not drawn),-0.7,-1.1,2.0,0,x,-6,-2,-2.3
Cc1ccc(NCc2nnc3n2CCCCC3)cc1,2.6,0.4,-1.0,6,1%,-14,x,1.8
Cc1ccccc1OCC(=O)NNC(=O)CN1C(=O)c2ccccc2C1=O,x,-0.2,-2.1,-4,x,-9,-3,4.5
Clc1cccc(N2CCN(CCNc3nc4ccccc4n4cnnc34)CC2)c1,x,1.0,-3.1,26,0%,-1,-1,3.4
COC/C=C/C1=CC2=CC(=O)C(C)(OC(=O)c3cnc4ccccc4n3)C(=O)C2=CN1CCOC (stereo not drawn),x,1.1,u,0,x,1,-3,-2.4
Cc1oc(-c2ccccc2)cc1C(=O)Nc1cccc2ccccc12,x,0.3,0.0,-4,3%,-3,-3,2.9
COC(CNC(=O)C1CCCCC1C(=O)O)OC (stereo not drawn),x,-1.4,5.9,-5,9%,-10,-6,1.7
CCOc1ccc2ccccc2c1/C=N/NC(=O)CNC(=O)c1ccccc1O,-51,-0.9,-0.1,-7,x,-2,x,0.3
O=C(Nc1ccc(N2CCN(C(=O)c3ccccc3)CC2)cc1)c1cccnc1,-1.5,0.2,0.9,21,x,0,22,-0.2
Cc1cc(C(=O)COc2cccnc2[N+](=O)[O-])c(C)n1Cc1ccco1,10,0.0,-0.9,-20,11%,2,30,4.8
O=C(COc1ccc(S(=O)(=O)NCc2ccccc2)cc1)NCC1CCCO1 (stereo not drawn),x,-1.1,0.8,-11,4%,4,-1,2.6
CCOC(=O)C1CCN(C(=O)CNS(=O)(=O)c2cccs2)CC1,x,0.4,5.2,-8,-10%,-9,-4,-3.7

Carrying on:
Structure,MLL AF4-AF9 inh,Bfl-1 A1 inh,RanGTP-Imp inh,T cruzi repl,Vif A3G,Calb FLC,Beta apoptosis,LANA-H2A inh
O=C(COC(=O)c1cnccn1)c1ccc2c(c1)CCCC2,x,0.3,8.0,-4,-1%,7,x,-2.5
O=C(CCCN1C(=O)c2ccccc2C1=O)Nc1cccnc1,x,0.2,2.1,-3,0%,-2,-3,0.6
CC(NC(=O)COC(=O)c1ccc(CO)cc1)C1CC2CCC1C2 (stereo not drawn),-2.2,-0.2,x,x,x,x,4,2.8
O=C(CSc1ncnc2sc3c(c12)CCC3)NCC1CCCO1 (stereo not drawn),-3.2,0.0,x,-6,x,x,5,-4.1
COc1cccc(NC(=O)NCCN2CCCCC2)c1,-13,-0.7,-3.6,-9,x,-13,-2,1.0
CCC(C)NC(=O)c1ccccc1SC (stereo not drawn),-2.2,0.3,-1.9,-9,x,15,-9,-6.2
COc1cc(C(=O)Nc2ccc(C(=O)O)cc2)ccc1OC(C)=O,0.0,0.1,0.7,-3,11%,1,1,-0.8
COc1cc(OC)cc(C(=O)NCC(=O)OCC(=O)NC2CCCc3ccccc32)c1 (stereo not drawn),-0.2,-0.4,x,x,-6%,x,2,-3.9
CCCOc1cccc(C(=O)NC(=S)Nc2cccc(NC(=O)c3ccccc3Cl)c2)c1,2.7,1.0,1.3,18,-8%,-3,-7,-0.7

Source: PubChem (several laboratories)
